Screening results deposited in PubChem by National Center for Advancing Translational Sciences (NCATS).
PMP22 txn: Cell-based coincidence reporter assay to measure PMP22 gene transcription in S16 Pmp22-F2sN cells - Primary screen | S16 Pmp22-F2sN Schwann cells (luciferase reporters placed in the Pmp22 gene), FLuc/NLuc coincidence luminescence, 24 h | Potency, µM (series often up to 57.5 µM), for the others: at the top dose activity change, negative = inhibition, hits mostly inhibitors | 2% of 43,000 active | AID 1508649, 2021; active = clear falling dose curves in both reporters; inconclusive = both reporters move, but less clearly or upward; inactive = either reporter flat; the % is the NLuc reporter signal; further: on the % scale 0 is the no-effect control and ±100 the full control effect; some results filed as inactive show a strong effect at the top dose
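qHTS, 1536-well. Cells seeded, compounds added by pin tool, 24 h 37C. Nano-Glo reagent 1 (lysis/FLuc), 10 min RT, read; Stop&Glo, 10 min RT, read NLuc.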
HTT promoter inh: Primary qHTS for Identification of Small Molecule Inhibitors of Huntingtin Promoter Activity; HEK293 HTT promoter firefly luciferase reporter (activity 0% = vehicle and -100% = no light), 24 h; Potency, µM (titrated, usually from 57.5 µM), for the others: at the top dose activity change, negative = inhibition, actives largely listed as inhibitors; 0.93% of 48,000 active; active means well fitted inhibition curve with a large enough effect; inconclusive means small, poorly fitted or top-dose-only effect; inactive means no such curve, though single readings can be large or run the other way; further: nearly all actives have a fitted effect of over 50% in size
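HEK293 luciferase promoter-reporter cells (2,500/well) plated 24 h, then compounds added at up to 57.5 uM final for 24 h at 37 °C. Firefly luminescence by Dual-Glo, normalized to vehicle (0%) and zero RLU (-100%).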
The depositor's hits bear a star; ? = inconclusive; / = no result given; [ ] = another dose, or the depositor's remark. Potency means the concentration at half of the fitted maximal effect.

Molecule	PMP22 txn	HTT promoter inh
Cc1ccccc1-c1ccnc2c(-c3ccc(F)cc3)c(C)nn12	-36.8%	?
COc1ccccc1CNS(=O)(=O)c1cc(Br)cc2c1N(C(C)=O)C(C)C2 (centres undefined)	?	-23.7%
Cc1cc(C)c2c(n1)SCCN2C(=O)Nc1ccc(C(=O)Nc2ccc(C(C)C)cc2)cc1	?	-42.7%
COc1cc(C(=O)N2CC(=O)Nc3ccc(C)cc3C2c2ccc(F)cc2)cc(OC)c1OC (centres undefined)	5.9%	-10.0%
COc1ccc(CNC(=O)C2CCN(c3nnc(C)c4c(C)n(-c5ccc(C)cc5)nc34)CC2)cc1	?	?
Cc1cccc(CNC(=O)c2ccc(NC(=O)N3CC(C)Sc4ccccc43)cc2)c1 (centres undefined)	24.6%	-7.9%
COc1ccc(OCCn2c(NC(=O)c3ccc(OC)cc3)nc3ccccc32)cc1	?	-17.3%[11.5 µM]
O=C(NCc1ccc(Cl)cc1)c1cc2ccc3cccnc3c2[nH]1	-15.8%	8.5%
OC[C@H]1O[C@@H](n2cnc3c2NC=NC[C@@H]3O)C[C@H]1O	/	-8.5%
COc1ccc2c(c1)Cc1sc(NC(=O)c3ccccc3C)nc1-2	-133.1%	8.3%
COc1ccc(N2CCN(C(=O)c3ccc4c(c3)CCN4S(=O)(=O)c3ccccc3)CC2)cc1	4.2%	?
CCOc1cc(-c2ccc(OC(=O)c3ccc(C)cc3)c(OC)c2)cc(=O)c2c(C)oc(C)c12	?	-19.0%
COc1ccccc1CNC(=O)CCC1N=C2c3ccccc3N=C(SCc3cccc(Cl)c3)N2C1=O (centres undefined)	?	-18.5%
COc1ccc(-c2cc3nc(C)c(CCC(=O)Nc4ccccc4C(C)=O)c(C)n3n2)c(OC)c1	10.5%	14.1µM*
Cc1ccc(CSc2oc(-c3ccco3)nc2S(=O)(=O)c2ccc(Cl)cc2)cc1	8.4%	?
COc1ccc(-c2nc(C)c(CCNC(=O)c3cc(OC)c(OC)c(OC)c3)s2)cc1OC	-78.6%	-1.3%
O=C1CC(c2nc3ccccc3n2CCCCOc2ccccc2)CN1c1ccccc1Cl (centres undefined)	?	?
Cc1nn(-c2ccccc2)c(-n2cccc2)c1C(=O)NCCc1ccc(Cl)cc1	?	?
COc1ccc(S(=O)(=O)N(CC(=O)Nc2cccnc2)c2ccc(Cl)cc2)cc1	-1.3%	-26.2%
O=C(NC1CCCCC1)c1ccc2c(c1)N(Cc1ccc(Cl)cc1)C(=O)c1ccccc1S2(=O)=O	7.4%	-10.4%
COc1ccc(Cl)cc1N=C1NC(=O)CC(C(=O)Nc2ccccc2C(F)(F)F)S1 (centres undefined)	22.7%	?
COc1cccc2c1cc1c(=O)n(CC(=O)N3CCN(c4ccccc4F)CC3)nc(C)n12	-21.8%	-9.2%
COc1ccc(OCCCCn2c(C3CC(=O)N(c4cccc(Cl)c4)C3)nc3ccccc32)cc1 (centres undefined)	?	?
N#Cc1nc(COc2ccccc2Cl)oc1NCCc1ccccc1	-10.0%	3.0%
CC(Sc1nc(-c2ccccc2)c(C#N)c(=O)[nH]1)C(=O)Nc1ccc(F)cc1 (centres undefined)	-27.3%	-13.4%
COc1ccc(CCNC(=O)c2ccc3c(c2)sc2nc(-c4ccc(C)cc4)cn23)cc1OC	-24.6%	0.1%
CC(C)(C)c1cc(C(C)(C)C)c(NC(=O)c2c[nH]c3ccccc3c2=O)cc1O	/	-25.9%
O=C(CCn1c(=O)c2cccn2c2cccnc21)NCc1ccccc1Br	-28.2%	6.1%
COC(=O)c1sccc1S(=O)(=O)N(CC(=O)NCc1ccccc1)c1ccccc1	-71.1%	-12.1%
Cc1ccc(CNC(=O)CSc2c3c(nc4cc(Cl)ccc24)CCCC3)cc1	-14.6%	1.0%
CCN1CCC[C@H]1CNC(=O)c1c(OC)ccc(Br)c1OC	/	2.3%
COc1cc(OC)c(NC2=C(c3ccc(C(F)(F)F)cc3)C(=O)c3ccccc32)cc1Cl	4.8%	?
Cc1cc2c(cc1S(=O)(=O)NCc1ccc(N(C)C)cc1)OCC(=O)N2	-1.1%	-36.4%
Cc1ccccc1CNC(=O)C(=O)NCC(c1ccco1)S(=O)(=O)c1ccc(F)cc1 (centres undefined)	?	?
CCOc1ccc(-c2cn(-c3ccc(OC)cc3)c(SCC(=O)Nc3ccccc3Cl)n2)cc1	-10.5%	?
CCOc1ccc(-n2c(C)nc3cc(C(=O)NC4CCCC4)ccc32)cc1	-5.0%	-12.0%
OC[C@@H](O)[C@@H](O)[C@H](O)[C@@H](O)CO	/	-11.9%
CC1(C)O[C@H]2[C@@H](O1)[C@@H](C(=O)Nc1ccc(F)c(F)c1)O[C@@H]1OC(C)(C)O[C@@H]12	2.5%	-7.2%
O=c1c2ccccc2n(Cc2ccccc2Cl)c(=O)n1CCc1ccccc1	-23.9%	0.1%
Cc1ccc(C)c(NC(=O)CN2C(=O)c3cccc4cccc2c34)c1	?	-17.2%
CCc1cc2c(cc3c(=O)n(CC(=O)NC4CCC(C)CC4)nc(CC)n32)s1 (centres undefined)	?	58.9%[activator]
CN(Cc1ccccc1)c1ncnc2c1nnn2C	-19.7%	-13.6%
COc1ccc2c(Oc3ccc(NC(=O)c4c(C)n(CC(C)(C)O)n(-c5ccccc5)c4=O)cc3F)ccnc2c1	/	?
COc1ccc(S(=O)(=O)N2CCC(c3ccncc3)CC2)cc1OC	-28.1%	?
CCCN1CCN(C(=O)Cn2c(-c3cccs3)cc3ccccc32)CC1	?	-19.6%
Cc1ccc(CNC(=O)CCNS(=O)(=O)c2ccc3c(c2)CCCC(=O)N3)cc1	-17.7%	-25.6%
CC1(C)O[C@@H]2C[C@H]3[C@@H]4C[C@H](F)C5=CC(=O)CC[C@]5(C)[C@H]4[C@@H](O)C[C@]3(C)[C@]2(C(=O)CO)O1	/	10.3%
CCCN(CCC)C(=O)CSc1nc2ccccc2c(=O)n1Cc1ccco1	?	-18.1%
CCc1ccc(NC(=O)C2=CC(c3cccs3)=NS(=O)(=O)N2C)cc1	13.6%	?
CC[C@H]1CN2CCc3cc(OC)c(OC)cc3[C@@H]2C[C@@H]1C[C@H]1NCCc2cc(OC)c(OC)cc21	/	?
O=C(NCC(c1ccco1)S(=O)(=O)c1cccs1)c1c(F)cccc1F (centres undefined)	-10.1%	-3.1%
COc1ccc(CCNC(=O)CSC2=Nc3ccccc3C3=NC(CCC(=O)NCc4ccccc4)C(=O)N23)cc1OC (centres undefined)	-54.7%	-2.3%
CCc1cc2c(cc3c(=O)n(CC(=O)NC4CCCCC4)nc(CC)n32)s1	-14.3%	0.2%
Cn1c(=O)c(=O)n(C)c2cc(S(=O)(=O)Nc3ccc(Cl)c(C(F)(F)F)c3)ccc21	-0.4%	-27.9%
CC(C)OCCCNC(=O)C(=O)Nc1ccc2nc3n(c(=O)c2c1)CCCCC3	-2.0%	19.6%
COc1cc2c(cc1NS(=O)(=O)c1cccc(C#N)c1)n(C)c(=O)n2C	-7.3%	-13.4%
CCN(CC)C(=O)C1=C(C)Nc2nc3ccccc3n2C1c1cccc(OC)c1 (centres undefined)	4.6%	-10.3%
CCOc1ccc(NC(=O)c2cc3nc(-c4ccc(OC)cc4)cc(C(F)(F)F)n3n2)cc1	-26.4%	-8.2%
CC(=O)N1CCc2cc(S(=O)(=O)NC(Cc3ccccc3)C(=O)Nc3cc(C)ccc3C)ccc21 (centres undefined)	7.2%	-8.5%
CC1CCN(CC2CCN(C(=O)NCc3ccccc3)CC2)CC1	1.2%	-16.8%

Some of the entries so far, with each value named.
Cn1c(=O)c(=O)n(C)c2cc(S(=O)(=O)Nc3ccc(Cl)c(C(F)(F)F)c3)ccc21
  PMP22 txn: -0.4% | HTT promoter inh: -27.9%

CC(C)OCCCNC(=O)C(=O)Nc1ccc2nc3n(c(=O)c2c1)CCCCC3
  PMP22 txn: -2.0% | HTT promoter inh: 19.6%

COc1cc2c(cc1NS(=O)(=O)c1cccc(C#N)c1)n(C)c(=O)n2C
  PMP22 txn: -7.3% | HTT promoter inh: -13.4%

CCN(CC)C(=O)C1=C(C)Nc2nc3ccccc3n2C1c1cccc(OC)c1 (centres undefined)
  PMP22 txn: 4.6% | HTT promoter inh: -10.3%

Continued:
Molecule	PMP22 txn	HTT promoter inh
CCN(CC)S(=O)(=O)c1ccc2c(c1)N(CC(=O)N1CCN(c3cccc(OC)c3)CC1)C(=O)CO2	?	-15.7%
Cc1c(C(=O)N(Cc2ccc(N(C)C)cc2)CC2CCCO2)oc2ccc(Br)cc12 (centres undefined)	-3.4%	-10.6%
CC(=O)Nc1ccc(NC(=O)CSc2nc3ccccc3nc2N2CCCCC2)cc1	-11.3%	-6.7%
CC(C)N(CCCNC(=O)Cn1ncc2c([nH]c3ccccc32)c1=O)Cc1ccccc1	-25.5%	-0.5%
Oc1c(Cl)cc(Cl)cc1Sc1cc(Cl)cc(Cl)c1O	/	?
CCCS(=O)(=O)c1nc(S(=O)(=O)c2ccc(C)cc2)c(NC)s1	?	-16.9%
COC(=O)c1c(-c2cccs2)csc1NC(=O)COc1c(C)ccc(C)c1C	-19.5%	?
O=C(Nc1cccc(OCc2cc(=O)n3ccccc3n2)c1)c1ccccc1Br	-25.2%	?
COc1ccc(CCNS(=O)(=O)c2ccc3c(c2)c(=O)n(C)c(=O)n3C)cc1OC	-14.7%	-0.1%
COc1cc(OC)c(NC(=O)C2=C(C)C(=O)OC23CCCCCC3)cc1Cl	?	-8.2%
CCc1ccc(N2CCn3c2nc2c3c(=O)n(CCCc3ccccc3)c(=O)n2C)cc1	8.2%	1.9%
CSc1ccc(CCNC(=O)Cn2ncn3c(cc4ccccc43)c2=O)cc1	-0.3%	-0.1%
CCN(CC)CC(=O)Nc1c(C)cccc1C	/	-6.3%
CC(C)COc1ccc(C(=O)N2CCC(c3nc4ccccc4s3)CC2)cc1	-4.5%	-21.9%
Cc1ccc(C(=O)Nc2cc3cc(Cl)ccc3oc2=O)cc1	6.5µM*	-10.1%
CCC(CC)C(=O)Nc1ccc(S(=O)(=O)N2CCC(c3nc4ccccc4s3)CC2)cc1	-9.2%	-13.8%
CCOC(=O)c1c(NC(=O)c2cc(-c3ccc(Cl)cc3)on2)sc(C)c1C	6.7%	-4.1%
Fc1ccc(Nc2ncnc3onc(-c4cccc(Cl)c4)c23)c(F)c1	-21.9%	7.5%
COc1ccc(CNc2nc(SCc3ccccc3Cl)nc3ccccc23)cc1	?	-27.3%
COc1cc(CNc2ccc3[nH]c(=O)[nH]c3c2)cc(Br)c1OCc1ccc(F)cc1	1.89µM*	?
COc1cc(NC(=O)Cn2c(=O)n(C(C)C)c(=O)c3oc4ccccc4c32)cc(OC)c1	0.5%	-13.6%
Cc1ccn2c(=O)cc(COc3ccc(NC(=O)COc4ccccc4)cc3)nc2c1	4.1%	-4.7%
Cc1ccc(/C=C/c2onc(C)c2S(=O)(=O)N2CCC(C(=O)N3CCN(c4cc(C)ccc4C)CC3)CC2)cc1	-18.9%	-24.0%
COc1ccc(C)cc1NC(=O)C1CCCN(c2ncnc3onc(C)c23)C1 (centres undefined)	?	?
O=C(CCC1N=C2c3ccccc3N=C(SCc3cccc(F)c3)N2C1=O)NCc1cccs1 (centres undefined)	?	-21.6%
Cc1cc2c(cc1S(=O)(=O)CCC(=O)N1CCC(C)CC1)OCC(=O)N2	-7.8%	-5.8%
CCN(CC)CCNC(=O)c1sc2nc3n(c(=O)c2c1C)CCCCC3	13.8%	1.3%
Cn1c(=O)c2c(nc(NCCc3ccccc3)n2Cc2ccc(Cl)cc2)n(C)c1=O	?	?
CC1=C(C(=O)Nc2ccccc2)C(c2ccccn2)n2nc(SCc3ccccc3)nc2N1 (centres undefined)	?	-12.1%
COc1ccc(N(C)C(=O)c2cn(C3CCCCC3)c(=O)c3c2c2ccccc2n3C)cc1	?	?
Cc1cccc(Cn2c(=O)n(Cc3ccccc3)c(=O)c3c2c2cc(C)ccc2n3C)c1	-19.2%	-8.5%
CCOC(=O)c1cnc2ccccc2c1Nc1cccc(OC)c1	?	?
Cc1ccc(-c2onc(C)c2C)cc1S(=O)(=O)N1c2ccccc2CC1C (centres undefined)	?	?
Cc1ccccc1C(=O)c1cccn1CC(=O)NCc1ccc(Cl)cc1	0.9%	2.7%
CCOC(=O)c1c(C)c(-c2ccccc2)n(CC(=O)Nc2cc(C)cc(C)c2)c1C	?	-13.1%
Cc1ccc(CSc2nc3c(c(=O)[nH]2)C(c2cccc(F)c2F)CC(=O)N3)cc1 (centres undefined)	-1.0%	-17.4%
CCC(=O)C1=C(c2ccc(F)cc2)N(C(=O)CC)n2c(nnc2-c2ccc(OC)cc2)S1	?	-5.8%
CC(C)c1ccccc1NC(=O)CSc1nnc(COc2ccccc2)o1	6.7%	0.3%[11.5 µM]
COc1ccc(Nc2nc(-c3ccccc3F)nc3ccccc23)cc1OC	-29.1%	?
